Ecoli rRNA inh = inhibitors of bacterial rRNA selective over humanized ribosomes | E. coli WT GFP vs humanized-ribosome RFP mutants, fluorescence, 24 h; active compounds read low; DMSO median 0, no signal -100 | GFP signal change (wild-type ribosome), % (no concentration beside the values) | AID 720706 | actives 1.6% (n = 350,000);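 active = significant combined selectivity score with lowered wild-type GFP, culture density cut under 30%, mutant RFP and density less affected; inactive = any of these conditions unmet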; also: one replicate is shown; some compounds called inactive have numbers as strong as hits
MLL AF4-AF9 inh = blocks AF4 peptide binding to human AF9 | AlphaScreen, biotin-AF4 peptide binding to FLAG-AF9 | inhibition, % at 10 µM | actives 0.47% (n = 350,000);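 active = every replicate reaching a set inhibition limit, whatever the replicate mean, cut at about 25% in these data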;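 also: 0% = plate neutral control median and 100% = total signal loss; the record names both 10 and 1 µM as test concentration; the first replicate is given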
Target sequence (P42568 whole entry, looked up): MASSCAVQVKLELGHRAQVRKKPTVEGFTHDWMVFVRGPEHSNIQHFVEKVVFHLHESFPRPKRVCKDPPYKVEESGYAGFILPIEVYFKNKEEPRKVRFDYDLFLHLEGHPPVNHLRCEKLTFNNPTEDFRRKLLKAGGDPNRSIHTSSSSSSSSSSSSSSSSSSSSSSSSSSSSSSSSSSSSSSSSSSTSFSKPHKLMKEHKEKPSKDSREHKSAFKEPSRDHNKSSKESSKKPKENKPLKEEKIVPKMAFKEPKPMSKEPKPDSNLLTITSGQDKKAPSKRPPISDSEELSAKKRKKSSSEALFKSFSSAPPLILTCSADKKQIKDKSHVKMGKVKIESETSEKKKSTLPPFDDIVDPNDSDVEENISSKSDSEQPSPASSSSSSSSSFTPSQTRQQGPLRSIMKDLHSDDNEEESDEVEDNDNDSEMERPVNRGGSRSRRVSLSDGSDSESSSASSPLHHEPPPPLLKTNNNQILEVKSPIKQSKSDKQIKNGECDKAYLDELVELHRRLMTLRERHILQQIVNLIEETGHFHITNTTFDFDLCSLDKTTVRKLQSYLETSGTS
Ecoli rRNA inh OD600 = second read-out of Ecoli rRNA inh, no call of its own (marks repeat the call); OD600 change, %; measured here: OD600 growth;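 optical density of the mix in the first replicate; 0 = DMSO median and -100 = no signal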
Ecoli rRNA inh RFP = second read-out of Ecoli rRNA inh, no call of its own (marks repeat the call); RFP signal change, %; measured here: RFP humanized mutant strains;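 first replicate; 0 = DMSO median and -100 = no signal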
The depositor's hits bear a star; & = joins results of further samples. Not all compounds are listed; rates above refer to the full screens.

SMILES,Ecoli rRNA inh,Ecoli rRNA inh OD600,Ecoli rRNA inh RFP,MLL AF4-AF9 inh
Cc1noc(C)c1S(=O)(=O)Nc1ccc2c(c1)C(=O)N([C@H](C)CO)C[C@H](C)[C@@H](CN(C)Cc1ccncc1)O2,1,2,2.1,-1.5
C[C@H](CO)N1C[C@H](C)[C@@H](CN(C)C)Oc2ccc(NC(=O)Nc3ccc(C(F)(F)F)cc3)cc2CC1=O,-2,-2,1.3,8.8
Cc1ccc(S(=O)(=O)N2[C@@H](c3ccc(Br)cc3)C(C(=O)O)=CC[C@H]2c2cccc(C)c2)cc1,0,-2,1.8,0.7
CO[C@@H]1CN(C)C(=O)c2ccc(NC(=O)C3CCC3)cc2OC[C@@H](C)N(S(=O)(=O)c2ccc(Cl)cc2)C[C@H]1C,-4,-9,2.4,3.1
Cc1noc(C)c1NC(=O)N(C)C[C@H]1OCCCC[C@@H](C)Oc2ccc(NS(=O)(=O)c3c(C)noc3C)cc2C(=O)N([C@H](C)CO)C[C@@H]1C,9,-1,0.3,2.4
O=C(CCN1CCCCC1)NCC[C@H]1CC[C@H](NC(=O)Nc2ccc(F)cc2)[C@@H](CO)O1,1,3,-1.9,2.5
C[C@H](CO)N1C[C@H](C)[C@H](CN(C)Cc2ccc(C(F)(F)F)cc2)Oc2c(NC(=O)Nc3ccc(F)cc3)cccc2C1=O,-1,-36,11,5.0
C[C@@H]1CN([C@H](C)CO)S(=O)(=O)c2ccc(C#Cc3ccccc3F)cc2O[C@H]1CN(C)C(=O)Cc1cccnc1,-38,-62,18,0.2
O=C(Cc1ccccc1)N1CC[C@@H]2[C@H]1c1cc(Br)ccc1N[C@@H]2CO,-4,-4,-5.8,2.0
CCCNC(=O)N1CC2(C1)CN(C(=O)c1ccncc1)[C@@H](CO)c1[nH]c3cc(OC)ccc3c12,3,5,-1.4,-0.7
Cc1ccccc1OCC(=O)OCC(=O)c1c[nH]c2ccccc12,-5,0,0.9,0.1
CCC(=O)Nc1ccc2c(c1)C(=O)N(C)C[C@@H](OC)[C@H](C)CN(Cc1ccncc1)[C@H](C)CO2,-1,1,-1.9,-1.4
CCCNC(=O)N(C)C[C@@H]1Oc2cc(-c3ccncc3)ccc2S(=O)(=O)N([C@H](C)CO)C[C@@H]1C,6,12,-1.8,-4.2
N#C[C@H]1[C@@H](c2ccc(-c3cccc(F)c3)cc2)[C@@H](CO)N1C(=O)c1cccnc1,-18,-63,11,-0.3
CC(C)(C)S(=O)N1C[C@H]2CC(=O)C(CCO)=C2[C@@H]1CCO (some centres not stated),10,18,1.4,-2.6
CO[C@@H]1CN(C)C(=O)c2ccc(NC(=O)C3CC3)cc2OC[C@H](C)N(C)C[C@@H]1C,1,4,-1.1,-28
CCC(=O)NC[C@H]1[C@H](c2ccc(-c3ccccc3)cc2)[C@H](CO)N1C(=O)C1CC1,-5,-9,-1.8,0.0
C[C@H](CO)N1C[C@H](C)[C@H](CN(C)C(=O)Nc2cccc3ccccc23)Oc2ccc(NS(C)(=O)=O)cc2C1=O,-1,3,2.8,-0.5
O=C1CN(Cc2ccccc2)C[C@@H]2[C@@H](c3ccc(-c4ccccc4F)cc3)[C@H](CO)N12,-4,-13,23,3.2
O=C([C@H]1[C@H](CO)[C@H]2Cn3c(cccc3=O)[C@@H]1N2C(=O)c1ccccn1)N1CCCCC1,2,3,-3.7,0.2
COc1ccc2c3c(n(C)c2c1)[C@@H](CO)N(C(=O)c1cccnc1)CC31CCN(C)CC1,5,7,0.1,6.9
Cc1ccc(-c2nc3c(C)cc(Br)cn3c2Cc2cccc(F)c2)cc1,8,7,-3.5,-0.6
C[C@H](CO)N1C[C@H](C)[C@@H](CN(C)S(=O)(=O)c2ccccc2)Oc2c(NS(=O)(=O)c3ccccc3)cccc2C1=O,0&5,1&-5,-0.1&3.7,0.4&-0.8
C[C@@H]1CN([C@H](C)CO)C(=O)c2cc(-c3ccc(C(=O)N(C)C)cc3)cnc2O[C@@H]1CN(C)C,1,5,-2.1,0.7
CCc1cnc(N2[C@H](CO)[C@H](c3ccccc3)[C@@H]2C#N)s1,0,12,-0.9,-1.5

Structures shown so far containing a cyano group (2):
SMILES,Ecoli rRNA inh,Ecoli rRNA inh OD600,Ecoli rRNA inh RFP,MLL AF4-AF9 inh
N#C[C@H]1[C@@H](c2ccc(-c3cccc(F)c3)cc2)[C@@H](CO)N1C(=O)c1cccnc1,-18,-63,11,-0.3
CCc1cnc(N2[C@H](CO)[C@H](c3ccccc3)[C@@H]2C#N)s1,0,12,-0.9,-1.5

New compounds follow
SMILES,Ecoli rRNA inh,Ecoli rRNA inh OD600,Ecoli rRNA inh RFP,MLL AF4-AF9 inh
C[C@H](CO)N1C[C@H](C)[C@H](CN(C)S(=O)(=O)c2cccs2)Oc2c(NS(C)(=O)=O)cccc2C1=O,1,3,1.0,-0.2
COc1ccc2c3c(n(C)c2c1)[C@H](CO)N(C)CC31CN(CC2CC2)C1,2,9,0.2,5.4
C/C=C/c1ccc([C@H]2[C@@H](CO)N3C(=O)CN(S(=O)(=O)c4cccc(F)c4)C[C@H]23)cc1,4,0,7.0,1.2
COc1ccc(NC(=O)Nc2cccc3c2O[C@H](CN(C)S(C)(=O)=O)[C@H](C)CN([C@H](C)CO)C3=O)cc1,-1,-5,-1.7,4.0
CO[C@H](CN(C)S(=O)(=O)c1ccc(Cl)cc1)[C@@H](C)CN(Cc1ccccc1Cl)[C@H](C)CO,-1,-31,-4.6,-16
C/C=C/c1cnc2c(c1)C(=O)N([C@@H](C)CO)C[C@H](C)[C@@H](CN(C)Cc1ccccc1)O2,3,7,-1.9,-1.5
CN(C)CC(=O)N1[C@@H]2c3ccc(-c4ccc(F)cc4)c(=O)n3C[C@@H]2[C@@H](CO)[C@@H]1C(=O)NC1CCC1,-1,2,0.8,-13
Cc1noc(C)c1NC(=O)Nc1ccc2c(c1)CC(=O)N([C@H](C)CO)C[C@@H](C)[C@H](CN(C)S(=O)(=O)c1ccccc1)O2,-2,1,-1.3,-18
Cc1cccc(S(=O)(=O)N2CC[C@H]3[C@H](CO)Nc4ccc(C#Cc5ccc(F)cc5)cc4[C@H]32)c1,-8,-10,-2.4,-2.4
COc1ccccc1CNC(=O)C[C@@H]1C[C@@H]2c3cc(NS(=O)(=O)c4ccc(F)cc4)ccc3O[C@@H]2[C@@H](CO)O1,-5,-11,2.5,0.6
Cc1ccc2nc(C(C)(C)C)c(Cc3ccsc3)n2c1,25,9,2.7,0.1
CC(C)NC(=O)N1Cc2cc(C(=O)NC3CCCC3)nc(-c3cccc(-c4cccnc4)c3)c2[C@@H]1CCO,-9&-10,-5&-11,0.0&3.1,4.5&6.8
O=C(Cc1ccccc1)N[C@@H]1CC[C@@H](CC(=O)N2CCCCC2)O[C@H]1CO,4,-5,5.5,-1.1
COc1ccc(S(=O)(=O)Nc2ccc3c(c2)C(=O)N([C@@H](C)CO)C[C@H](C)[C@H](CN(C)S(=O)(=O)c2c(C)noc2C)O3)cc1,0,-4,0.3,1.0
C[C@H]1CN([C@@H](C)CO)C(=O)Cc2cc(NC(=O)NC3CCCCC3)ccc2O[C@H]1CN(C)C(=O)Nc1ccc(F)cc1,3,1,-0.3,-1.4
COc1ccc2c3c(n(C)c2c1)[C@H](CO)N(C)CC31CN(C(=O)CN2CCOCC2)C1,3,5,4.3,4.0
C[C@H]1CN([C@@H](C)CO)C(=O)c2cccc(NC(=O)c3nc4ccccc4s3)c2O[C@@H]1CN(C)S(=O)(=O)c1ccc(Cl)cc1,0,3,-2.0,0.7
COc1cccc(S(=O)(=O)N(C)C[C@@H]2Oc3ncc(-c4cc5ccccc5o4)cc3C(=O)N([C@H](C)CO)C[C@@H]2C)c1,-2,-4,1.1,3.4
O=C(NCc1ccc(F)cc1)c1cc(C2CCCCN2C(=O)c2ccc3c(c2)CCO3)on1 (configuration not stated),-4,-13,8.4,1.5
COc1ccc(CCNC(=O)Nc2ccc3nc([C@@H]4O[C@H](CO)[C@@H](O)[C@H](O)[C@H]4O)[nH]c3c2)cc1Br,5,10,-2.0,-21
CCN(CC)C(=O)c1ccc(Cc2cn(C)c3ccccc23)nc1,4,6,3.8,0.7
COc1ccc(CCNC(=O)c2cc(S(=O)(=O)N3CCc4ccccc43)ccc2F)cc1OC,3,3,6.3,-2.4
CC(C)CC#Cc1ccc2c(c1)O[C@@H](CN(C)Cc1ccccn1)[C@H](C)CN([C@H](C)CO)S2(=O)=O,-23*,-18*,7.5*,5.4
CNC[C@@H]1Oc2c(NC(=O)c3ccncc3)cccc2C(=O)N([C@H](C)CO)C[C@H]1C,2,5,0.8,-7.5
C[C@H](CO)N1C[C@H](C)[C@H](CN(C)Cc2ccc(-c3ccccc3)cc2)Oc2ccc(NC(=O)CCCN(C)C)cc2CC1=O,-60,-83,-15,2.9

Laid out differently: 3 of the compounds above.
C[C@H](CO)N1C[C@H](C)[C@H](CN(C)Cc2ccc(C(F)(F)F)cc2)Oc2c(NC(=O)Nc3ccc(F)cc3)cccc2C1=O
  Ecoli rRNA inh: -1	Ecoli rRNA inh OD600: -36	Ecoli rRNA inh RFP: 11	MLL AF4-AF9 inh: 5.0

C[C@@H]1CN([C@H](C)CO)S(=O)(=O)c2ccc(C#Cc3ccccc3F)cc2O[C@H]1CN(C)C(=O)Cc1cccnc1
  Ecoli rRNA inh: -38	Ecoli rRNA inh OD600: -62	Ecoli rRNA inh RFP: 18	MLL AF4-AF9 inh: 0.2

O=C(Cc1ccccc1)N1CC[C@@H]2[C@H]1c1cc(Br)ccc1N[C@@H]2CO
  Ecoli rRNA inh: -4	Ecoli rRNA inh OD600: -4	Ecoli rRNA inh RFP: -5.8	MLL AF4-AF9 inh: 2.0

Later entries:
SMILES,Ecoli rRNA inh,Ecoli rRNA inh OD600,Ecoli rRNA inh RFP,MLL AF4-AF9 inh
C[C@@H]1CN([C@@H](C)CO)C(=O)Cc2cc(N(C)C)ccc2O[C@H]1CN(C)Cc1ccc(C(=O)Nc2ccccc2N)cc1,-1,5,-1.3,15
COC(=O)[C@H]1[C@H](CO)[C@H]2Cn3c(ccc(C4=CCCCC4)c3=O)[C@H]2N1C(=O)c1ccccc1F,-4,4,0.3,2.4
C/C=C/c1ccc([C@@H]2[C@@H](CO)N(C(C)=O)C23CN(C(=O)NC2CCCC2)C3)cc1,-1,2,-0.8,-0.1
COc1ccc(NC(=O)N(C)C[C@@H]2OCCCC[C@@H](C)Oc3ccc(NC(=O)CCCN(C)C)cc3C(=O)N([C@H](C)CO)C[C@@H]2C)cc1,3,4,-0.2,-0.3
COCC#Cc1ccc([C@@H]2[C@H](CO)N3C(=O)CN(C(=O)c4cccnc4)C[C@@H]23)cc1,3,4,-0.4,4.7
COc1ccc(NC(=O)Nc2ccc3c(c2)C(=O)N([C@H](C)CO)C[C@H](C)[C@H](CN(C)S(=O)(=O)c2ccccc2)OCCCC[C@H](C)O3)cc1,-2,1,-3.4,0.9
C[C@H]1CN([C@@H](C)CO)C(=O)c2cc(NS(=O)(=O)c3ccc(Cl)cc3)ccc2O[C@@H]1CN(C)Cc1ccc(C(=O)Nc2ccccc2N)cc1,-5,-1,1.5,-3.7
COc1ccc(NC(=O)N(C)C[C@H]2Oc3ccc(NS(=O)(=O)c4ccccc4)cc3C(=O)N([C@@H](C)CO)C[C@@H]2C)cc1,0,5,-1.1,-0.4
CC(C)C#Cc1ccc([C@H]2[C@@H](CO)N(C(=O)C3CC3)[C@H]2C#N)cc1,-3,12,1.9,-3.5
O=C(NC[C@@H]1[C@@H](c2ccccc2)[C@@H](CO)N1C(=O)Cc1cccnc1)C1CC1,5,-1,0.6,-1.5
CC(NC(=O)c1cccc(S(=O)(=O)N2CCCCCC2)c1)c1ccccc1 (configuration not stated),-13,-23,2.7,1.5
CCCC#Cc1cnc2c(c1)C(=O)N([C@@H](C)CO)C[C@H](C)[C@@H](CN(C)S(=O)(=O)c1cn(C)cn1)O2,4,7,0.7,-2.1
Cc1ccccc1S(=O)(=O)NCC[C@H]1CC[C@@H](NC(=O)Nc2cccc(F)c2)[C@H](CO)O1,-4,-8,3.2,0.4
CS(=O)(=O)Nc1ccc2c(c1)[C@@H]1C[C@@H](CC(=O)N3CCOCC3)O[C@@H](CO)[C@@H]1O2,3,7,-3.3,-13
Cc1c(NS(=O)(=O)c2cccc(C(=O)NC(C)c3ccccc3)c2)c(=O)n(-c2ccccc2)n1C (configuration not stated),2,3,5.3,-5.4
Cc1ccnc(NCc2cc(Cl)cc(Cl)c2O)c1,-58,-76,-21,0.6
CCC(=O)N1[C@H](C(=O)OC)[C@@H](CO)[C@@H]2Cn3c(ccc(-c4ccccc4F)c3=O)[C@@H]21,4,7,-1.3,0.7
CCCNC(=O)C1(C)CCCN(C(=O)COc2ccc(C(C)(C)C)cc2)C1 (configuration not stated),-30,-57,7.8,2.0
O=C(C[C@H]1CC[C@H]2[C@@H](COC[C@@H](O)CN2S(=O)(=O)c2ccccc2F)O1)NCc1ccccc1Cl,-4,-1,-1.8,-1.0
COc1ccc(NC(=O)Nc2ccc3c(c2)C(=O)N([C@@H](C)CO)C[C@H](C)[C@@H](CN(C)Cc2ccncc2)OCCCC[C@@H](C)O3)cc1,-5,-15,-0.1,7.1
CC(C)C[C@@H]1COc2cc(N(C)CCO)ccc2S(=O)(=O)N1,-3,1,-1.8,0.3
COc1ccccc1Cc1c(-c2ccc(OC)c(OC)c2)nc2c3ccccc3ccn12,3,15,0.3,2.5
